RE007 growth inh – less growth of the S. pombe RE007 Vpr strain | S. pombe RE007 Vpr strain, BacTiter-Glo ATP luminescence, 24 h; control for the full effect not named in the record | actives 0.21% (n = 360,000) | AID 651644 | Potency, µM (series often up to 92.2 µM), for inactives: top-dose activity change, negative = less growth; active = well fitted falling curve with a large enough effect; inconclusive = small, poorly fitted or top-dose-only effect; inactive = no such curve, though single readings can be large or run the other way;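 note: % is set by controls: 0 for no effect and ±100 for the full control effect; nearly all actives have a fitted effect of over 50% in size; the assay follows cell death caused by Vpr and the record does not say whether a fall means rescue or toxicity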
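Fission yeast strain RE007, carrying one chromosomally integrated HIV-1 vpr copy, was seeded at OD 0.01 in PMG+AL medium with 23 nL pinned compound. After 24 h at 30 °C and 99% humidity, viability was read by BacTiter-Glo luminescence.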
Cruzain inh Det – cruzain (T. cruzi) inhibition with detergent; P25779; purified cruzain, Z-FR-AMC fluorescence, 0.01% Triton; Potency, µM, for the others: max response, negative = inhibition, hits mostly inhibitors; actives 0.43% (n = 200,000); active = well fitted curve in the direction sought with a large enough effect; inconclusive = small, poorly fitted or top-dose-only effect, or another doubt; inactive = no such curve, though single readings can be large; an effect the other way counts as inactive or inconclusive;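 note: plate controls were neutral wells for no effect and buffer without enzyme for full effect; nearly all actives have a fitted effect of over 40% in size; top concentration of the series not given in the record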
Target sequence (P25779 123-467 limits assumed): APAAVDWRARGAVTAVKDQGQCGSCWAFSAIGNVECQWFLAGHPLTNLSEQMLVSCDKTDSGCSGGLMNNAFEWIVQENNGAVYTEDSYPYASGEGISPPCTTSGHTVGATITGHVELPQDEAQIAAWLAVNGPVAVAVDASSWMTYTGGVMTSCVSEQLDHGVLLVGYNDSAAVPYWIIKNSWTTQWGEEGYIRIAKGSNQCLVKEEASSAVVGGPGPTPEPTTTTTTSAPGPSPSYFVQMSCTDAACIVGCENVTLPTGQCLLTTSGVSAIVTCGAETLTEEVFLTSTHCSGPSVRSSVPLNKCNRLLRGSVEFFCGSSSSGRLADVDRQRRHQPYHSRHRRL
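Read-out: AMC fluorescence (360 nm excitation, 450 nm emission), four reads over 2 min, first-to-third difference used. Conditions: cruzain 1.5 nM, Z-FR-AMC 2 uM, pH 5.5 acetate, 5 mM DTT, 0.01% Triton X-100.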
Marburg entry inh – blocks Marburg virus binding to or entry into cells; actives 1.8% (n = 300,000); Potency, µM (titrated, usually from 37.8 µM), for the others: at the top dose activity change, negative = inhibition, hits mostly inhibitors; Marburg virus pseudotyped entry inhibition, cell reporter; control for the full effect not named in the record; about a third of the inactives were read at about 46 µM; AID 540276; active = well fitted inhibition curve with a large enough effect; inconclusive = small, poorly fitted or top-dose-only effect, or effect the other way; inactive = flat fitted curve, though single readings scatter; tested in HEK293 cells; about a fifth of its hits are not listed in these tables; note: % is set by controls: 0 for no effect and ±100 for the full control effect; luciferase read-out
NS1 inh – blocks influenza NS1 protein function | actives 0.4% (n = 270,000) | S. cerevisiae slowed by influenza A NS1, growth recovery by OD600 | Potency, µM (highest dose often 46.1 µM), for the others: top-dose activity, positive = more growth; note: actives are rising curves; nearly all actives have a fitted effect of over 50% in size
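Growth recovery, yeast-based: influenza A NS1 expressed in S. cerevisiae causes slow growth, and suppressors are detected by OD600. The parent strain without NS1 is used as positive control.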
Cruzain noTriton – cruzain (T. cruzi) inhibition without detergent; P25779; purified cruzain, Z-FR-AMC fluorescence, no detergent; Potency, µM, for inactives: max response, negative = inhibition, most hits filed as inhibitors; actives 2.3% (n = 200,000); active = well fitted curve in the direction sought with a large enough effect; inconclusive = small, poorly fitted or top-dose-only effect, or another doubt; inactive = no such curve, though single readings can be large; an effect the other way counts as inactive or inconclusive;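 note: plate controls were enzyme without inhibitor for no effect and buffer without enzyme for full effect; nearly all actives have a fitted effect of over 40% in size; top concentration of the series not given in the record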
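Detergent-free condition (0.00005% Triton X-100) in acetate buffer pH 5.5 with DTT. 1.5 nM enzyme and compound were pre-mixed 15 min, then 2 uM Z-FR-AMC substrate added; reaction progress from fluorescence change between first and third reads (60 s).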
SARS PLpro yeast – blocks SARS-CoV papain-like protease in a yeast assay; Potency, µM (doses to about 32.9 µM), inactives show at the highest dose activity, positive = growth rescue; actives 0.19% (n = 330,000); AID 485353; S. cerevisiae expressing SARS-CoV PLpro, growth rescue; control for the full effect not named in the record; note: 0% is about no effect; nearly all actives have a fitted effect of over 55% in size; growth read by luminescence after 48 h
Lassa entry inh – blocks Lassa virus binding to or entry into cells; Lassa virus pseudotype entry inhibition, cell reporter; control for the full effect not named in the record; Potency, µM (titrated, usually from 37.9 µM), for the others: top-dose activity change, negative = inhibition, usual class: inhibitors; actives 1.2% (n = 300,000); AID 540256; active means well fitted inhibition curve with a large enough effect; inconclusive means small, poorly fitted or top-dose-only effect, or effect the other way; inactive means flat fitted curve, though single readings scatter; tested in HEK293 cells; note: % is set by controls: 0 for no effect and ±100 for the full control effect; nearly all actives have a fitted effect of over 50% in size; luciferase read-out
StopGo reporter – lowers the luciferase signal of an FMDV 2A StopGo reporter; human cells with a luciferase reporter of 2A StopGo recoding; control for the full effect not named in the record; Potency, µM (highest dose often 57.9 µM), for the others: top-dose signal change, negative = less light; actives 1.2% (n = 410,000); AID 1159524; active = well fitted falling curve with a large enough effect; inconclusive = small, poorly fitted or top-dose-only effect; inactive = no such curve, though single readings can be large or run the other way; tested in HEK293T cells; note: % is set by controls: 0 for no effect and ±100 for the full control effect; nearly all actives have a fitted effect of over 45% in size; luciferase light after 4 h
* hit, by the source's call; ? = inconclusive; / = no result given; & = joins results of further samples; [ ] = remark or other dose. Unless noted, calls come from the whole dose curve; as a rule, active means well fitted rising curve with a large enough effect; inconclusive means small, poorly fitted or top-dose-only effect; inactive means no such curve, though single readings can be large or run the other way. Potency is the fitted concentration of half-maximal effect.

SMILES	RE007 growth inh	Cruzain inh Det	Marburg entry inh	NS1 inh	Cruzain noTriton	SARS PLpro yeast	Lassa entry inh	StopGo reporter
CCOC(=O)N1CCN(c2nc3ccc(C(=O)c4ccccc4)cc3n3cnnc23)CC1	17%	/	/	9%	/	0%	/	4%
Cc1ccc(C)c(-c2nnc(NC(=O)COc3ccccc3)o2)c1	25%	/	-2%	/	/	-10%	15%	-11%
Cc1ccc(S(=O)(=O)NCCc2ccncc2)cc1	5%	10%	?	6%	-3%	4%	?	79%[activator]
CCc1nnc(NC(=O)COC(=O)c2cc(OC)cc(OC)c2)s1	-9%	/	9%	/	/	-11%	12%	-21%
CCOc1ccc(CNC(=O)C2CCCCN2S(=O)(=O)c2ccc(F)cc2)cc1OC (stereo not drawn)	/	-0.1%	/	/	7%	/	6%[46.1 µM]	-13%
Cc1ccc(C)c(-n2c(-c3csc(C)c3C)n[nH]c2=S)c1	5%	-5.2%	-4%	15%	-12%	-5%	1%	-21%
CCN(CC(=O)N1CCCCC1)S(=O)(=O)c1ccccc1	10%	/	19%[46.1 µM]	-4%	/	5%	14%[46.1 µM]	0%
Cc1ccc(S(=O)(=O)N2CCCCC2CCNC(=O)C(=O)NCCc2ccco2)cc1 (stereo not drawn)	11%	/	?	/	/	-2%	?	-10%
Cc1cc(OCc2cccc(Cl)c2)c(C)cc1CN1CCOCC1	-6%	/	?	-56%	/	-3%	?	-4%
O=C(Nc1ccc(OC(F)(F)F)cc1)c1nc2ccccc2nc1N1CCCCC1	/	5.3%	/	/	5%	/	15%[46.1 µM]	-23%
COc1ccc(C(C(=O)NC2CCCCC2)N(CC2CCCO2)C(=O)CNC(=O)c2ccco2)cc1 (stereo not drawn)	5%	2.6%	9%[46.1 µM]	-9%	4%	2%	-7%	9%
Cc1c(CCC(=O)NCCCN2CCCC2=O)c(=O)oc2cc(O)ccc12	-9%	/	/	17%	/	-13%	/	-15%
Cc1cccc2c(=O)c(C(=O)NCCCN3CCOCC3)c[nH]c12	1%	-0.1%	?	-1%	-5%	-5%	20%	18%
Cc1ccc(Nc2nc(-c3c(C)nc4ncccn34)cs2)cc1	16%	-5.5%	?	-14%	25%	-12%	?	?
CCC1CCCCN1C(=S)Nc1ccc(SC(F)F)cc1 (stereo not drawn)	-7%	-5.2%	-14%	-31%	7%	0%	-1%	189%[activator]
CC(C)=N/N=C1/NC(=O)C(CC(=O)Nc2cc(Cl)ccc2C)S1 (stereo not drawn)	6%	2.2%	-1%	?	-10%	8%	16%	-21%
COc1ccc(OC)c(/C=C/C(=O)OCC(=O)Nc2cccc(Oc3ccccc3)c2)c1	7%	-3.2%	0%	0%	?	-11%	?	-8%
O=C(O)c1ccccc1NS(=O)(=O)c1ccc(NN=Cc2cccc(Cl)c2)c([N+](=O)[O-])c1	-17%	/	?	/	/	-10%	0%	-17%
COc1ccc(NC(=O)c2sc(Cl)nc2-c2ccccc2)cc1	23%	-5.0%	?	-23%	-5%	-2%	?	4%
COc1cccc2c1cc1c(=O)n(CC(=O)O)nc(C)n12	/	-5.4%	20%[46.1 µM]	/	-3%	/	/	-25%
CCOC(=O)c1csc(-c2ccc([N+](=O)[O-])cc2)n1	-7%	/	22%	/	/	0%	16%	44%[activator]
c1ccc(Nc2nc(Nc3ccccc3)nc(N3CCNCC3)n2)cc1	2%	/	6.3µM*	17%	/	3%	-18%[46.1 µM]	-8%
COc1ccc(NC(=S)NNC(=O)Cn2nc([N+](=O)[O-])cc2C)cc1	16%	3.8%	-14%	13%	1%	?	-4%	14%
C=CCNc1nc(C(=O)OCC(=O)c2ccc(OC)cc2OC)cs1	3%	/	14%	/	/	3%	1%	49%[activator]
O=C1OC(CCl)CN1Cc1ccc([N+](=O)[O-])cc1 (stereo not drawn)	-3%	/	?	/	/	/	2%[46.1 µM]	-3%
COc1ccc(-c2cccc(NC(=O)c3ccco3)c2)nn1	-19%	/	10%	/	/	-7%	?	-6%
Cc1ccc(C)c(N(CC(=O)N2CCCCCC2)S(C)(=O)=O)c1	9%	/	/	-6%	/	2%	/	-5%
CCc1nnc(NS(=O)(=O)c2ccc(N)cc2)s1	2%	/	/	4%	/	2%	/	-20%
CC(=O)COc1cc(C)cc2oc(=O)cc(-c3ccccc3)c12	-11%	/	/	14%	/	1%	/	-12%
CC(C)[C@@H]1N[C@]2(C(=O)Nc3ccccc32)[C@@H]2C(=O)N(c3cccc(C(F)(F)F)c3)C(=O)[C@@H]21	23%	-0.4%	-11%	6%	13%	6%	-1%	-22%
CCOc1cc(Cl)c(NC(=O)CC)cc1OCC	-4%	-0.4%	-1%	18%	2%	12%	?	-22%
CC(C)N1CC(O)=C(c2nc3ccccc3c(=O)[nH]2)C1=N	-1%	-8.0%	-3%	3%	0%	-1%	9%	16%
Cc1nc2ccccn2c1C(=O)/C=C/c1ccc(F)cc1	-16%	0.3%	-28%	-86%	-2%	-4%	?	-21%
COc1ccc(OC)c(NC(=O)CSc2ccccc2)c1	-18%	3.3%	1%	-17%	1%	-4%	13%	16%
Cn1c(CC(=O)Nc2ccc(F)cc2)c(Sc2ccccc2)c2ccccc21	7%	-1.1%	-11%	18%	?	?	3%	1%
COc1ccc(C2C(C(N)=O)=C(C)Nc3nc(-c4ccccc4OC)nn32)cc1OC (stereo not drawn)	-2%	3.4%	11%	6%	7%	-9%	-1%	-15%
COc1ccccc1OCCCOc1ccc(C)cc1Br	-11%	-5.7%	23%	-19%	-2%	-7%	4%	35%[activator]
COCC1CCCN(Cc2nc(-c3ccc4c(c3)OCO4)no2)C1 (stereo not drawn)	4%	/	?	-7%	/	0%	18%[46.1 µM]	28%
OC1(c2ccc3c(c2)OCO3)CCN(Cc2ccc(F)cc2)CC1	1%	/	/	?	/	0%	/	-3%
CCn1c2ccccc2c2cc(NC(=O)CN3CCCC3)ccc21	-14%	/	?	-23%	/	-10%	-30%[46.1 µM]	-6%
COC(=O)c1ccc([N+](=O)[O-])c(CS(=O)(=O)c2ccc(Cl)cc2)c1	-7%	/	6%[46.1 µM]	2%	/	1%	11%[46.1 µM]	9%
CC(/C=N/Nc1nc(N2CCCCC2)nc(N2CCCCC2)n1)=C\c1ccccc1	2%	-2.7%	12%	?	-9%	6%	0%	/
CCc1cccc(NC(=O)C2CCCN(c3ncnc4c3nc3n4CCCCC3)C2)c1 (stereo not drawn)	-16%	/	?	-81%	/	-12%	?	?
COc1ccc(S(=O)(=O)N2CCN(C(=O)c3c(C)nn(-c4ccccc4)c3C)CC2)cc1	7%	/	29%	/	/	4%	-24%	-15%
O=C(Cc1ccccc1)Nc1ccnn1C1CCN(Cc2nccs2)CC1	-2%	/	/	-2%	/	5%	/	20%
O=C(CCC1CCCCC1)Nc1c2c(nn1-c1ccc(F)cc1)CS(=O)(=O)C2	-7%	0.7%	?	-14%	1%	-3%	-45%[14.3 µM]	-25%
O=C1Nc2ccc(Br)cc2C1=Nc1cccnc1	-10%	/	-8%	-59%	/	-3%	?	-16%
Cc1cc(N2CCN(C)CC2)nc(-c2ccccc2O)n1	-5%	/	/	1%	/	0%	/	0%
CCC(C(=O)NCCc1ccccc1)n1nc(C)c2sc3ccccc3c2c1=O (stereo not drawn)	/	-3.0%	17%[46.1 µM]	/	1%	/	13%[46.1 µM]	-5%
Cc1ccc(C(c2nnnn2CS(=O)(=O)c2ccc(C)cc2)N2CCN(c3ncccn3)CC2)cc1 (stereo not drawn)	4%	-3.2%	?	9%	14%	14%	?	6%
NC(=O)c1cc(S(=O)(=O)N2CC=C(c3ccccc3)CC2)cs1	-6%	/	/	-1%	/	0%	/	8%
CCOc1ccc(NC(=O)NCC2CCN(Cc3ccc(F)cc3)CC2)cc1	3%	/	/	1%	/	-1%	/	-22%
CCCc1cc(=O)oc2cc(C)cc(OC(C)C(=O)NCc3cccnc3)c12 (stereo not drawn)	3%	/	/	2%	/	-15%	/	-10%
CCOC(=O)/C=C/C(=O)Nc1ccc(-c2nnc3n2CCCCC3)cc1	-10%	/	/	0%	/	0%	/	-7%
O=C(c1cccc(Br)c1)N1CCN(S(=O)(=O)N2CCCCCC2)CC1	8%	/	8%	-36%	/	6%	7%	-22%
COc1cc(C(=O)OCC(=O)N2CCN(S(=O)(=O)c3ccc(C)cc3C)CC2)c([N+](=O)[O-])cc1OC	2%	/	-5%	/	/	/	-7%	-27%
O=C(Nc1ccc(F)cc1F)c1cc(-c2ccc3c(c2)OCO3)on1	-12%	-2.5%	-15%&-19%[46.1 µM]	-8%	-12%	1%	8%	58%&15%[activator]
C#CC(=O)N(c1ccc(OC)cc1OC)C(C(=O)NC1CCCC1)c1cccs1 (stereo not drawn)	8%	/	?	3%	/	1%	?	?
C=CCN1C(=O)C(CC(=O)O)SC1=Nc1ccc(C)cc1 (stereo not drawn)	10%	/	/	0%	/	2%	/	-9%
Cc1ccc(C(C)(C)NC(=O)C2CCC(=O)N(Cc3ccccc3F)C2)cc1 (stereo not drawn)	1%	/	20%	-10%	/	-6%	22%	0%
(cont.)
SMILES	RE007 growth inh	Cruzain inh Det	Marburg entry inh	NS1 inh	Cruzain noTriton	SARS PLpro yeast	Lassa entry inh	StopGo reporter
Cc1cccc(NC(=O)COc2ccccc2C(=O)NC(C)c2ccccc2)c1 (stereo not drawn)	-3%	/	?	9%	/	2%	?	-18%
COC(=O)Nc1ccc(S(=O)(=O)N2CCCCCC2)cc1	13%	-2.2%	?	-2%	-4%	16%	-12%	15%
CCOC(=O)c1sc2ccccc2c1S(=O)(=O)N1CCN(c2cc(C)ccc2C)CC1	/	-3.6%	/	/	20µM*	/	-5%[46.1 µM]	-12%
O=C(CCn1c(=O)c2cccn2c2cccnc21)N1CCN(c2ccc(Cl)cc2)CC1	/	-0.7%	/	/	-5%	/	24%[46.1 µM]	?
Clc1cccc(Cl)c1/C=N/Nc1c(Cl)cncc1Cl	-15%	/	?	-7%	/	0%	?	-23%

Screening results from PubChem.
